Eya2 phos inh = Eya2 (human) phosphatase inhibition; recombinant Eya2, OMFP fluorescence dephosphorylation (OMFP is methylfluorescein phosphate); O00167; hit rate 0.006% among 330,000; Potency, µM (titrated, usually from 76.9 µM), for inactives: at the highest dose activity, negative = inhibition, usual class: inhibitors; note: potency is the fitted concentration of half-maximal effect; % is set by controls: 0 for no effect and ±100 for the full control effect
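Eya2 (0.2 uM) preincubated 10 min at ambient with compound, then OMFP substrate added at 50 uM; 10 min reaction in 50 mM HEPES pH 7.5, 50 mM NaCl, 5 uM MgCl2, 0.05% BSA, 1 mM DTT. Fluorescence read at Ex 485/Em 525 nm.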
TRPV1 ag = human TRPV1 agonism; Q8NER1; TRPV1-expressing cells, Fluo-8 calcium influx, agonist mode; activation, % at 8.33 µM; hit rate 0.19% among 320,000; in the data active = activation above about 80%; inconclusive = between about 30% and that limit; note: 0% is about no effect
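Fluo-8 calcium influx in TRPV1-expressing cells, kinetic read (ex 480/em 520 nm). Compound added and read 3 min for agonist activity, followed by capsaicin at EC20 final and 2 min further read for enhancement.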
USP2a block = inhibitors of human ubiquitin-specific protease USP2a; O75604; AID 463254; USP2 core, Ub-CHOP2 coupled fluorogenic reporter, 485/531; hit rate 0.01% among 330,000; Potency, µM (doses to about 38.3 µM), inactives show top-dose activity change, negative = inhibition, most hits filed as inhibitors;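 note: potency is the fitted concentration of half-maximal effect; plate controls were DMSO wells for no effect and full inhibition by NEM control for full effect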
Target sequence (O75604 whole entry, looked up): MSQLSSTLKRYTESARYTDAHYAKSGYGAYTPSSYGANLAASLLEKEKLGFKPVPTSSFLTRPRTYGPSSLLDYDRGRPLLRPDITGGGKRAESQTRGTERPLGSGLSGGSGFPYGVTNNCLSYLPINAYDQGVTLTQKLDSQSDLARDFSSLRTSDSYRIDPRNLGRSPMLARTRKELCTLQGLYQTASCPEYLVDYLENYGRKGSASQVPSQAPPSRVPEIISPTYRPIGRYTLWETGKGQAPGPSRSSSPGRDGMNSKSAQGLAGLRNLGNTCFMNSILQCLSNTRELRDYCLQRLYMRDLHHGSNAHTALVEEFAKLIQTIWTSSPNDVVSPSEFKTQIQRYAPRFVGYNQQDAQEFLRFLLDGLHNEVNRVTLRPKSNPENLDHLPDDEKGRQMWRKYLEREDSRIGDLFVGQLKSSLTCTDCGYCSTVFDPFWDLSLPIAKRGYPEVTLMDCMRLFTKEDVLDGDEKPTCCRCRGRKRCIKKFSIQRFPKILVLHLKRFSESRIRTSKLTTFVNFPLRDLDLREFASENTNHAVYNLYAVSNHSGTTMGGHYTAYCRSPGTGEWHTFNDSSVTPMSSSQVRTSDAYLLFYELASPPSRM
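Cell-free coupled assay: 10nM USP2 core preincubated 30min RT with compound in Tris-HCl pH 8.0/CaCl2/CHAPS buffer, then 25nM Ub-CHOP2 and 25nM reporter substrate; fluorescence (Ex 485/Em 531) read after 60min RT, normalized to NEM inhibition, concentration-response curves fitted.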
TCR activator = activates T cell receptor signaling; 330,000 tested, under 10 active; primary human leukocytes, anti-CD3, IL-2 HTRF, 48 h; AID 504894; Potency, µM (highest dose often 9.22 µM), inactives show at the highest dose activation of IL-2 secretion, usual class: activators; note: % of control where 0% means no effect
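Primary human leukocytes receive a-CD3 beads and test compound and are incubated 48 hr. Secreted IL-2 is then assayed by HTRF, measuring 665nm acceptor emission after 320nm excitation of the europium donor.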
AT treatment = potential ataxia-telangiectasia treatments restoring KAP-1 phosphorylation. […] A-T fibroblasts, KAP-1 phosphorylation AlphaLISA; neocarzinostatin DNA damage 30 min before lysis. Potency, µM (top dose mostly 57.5 µM), for the others: at the highest dose activation, actives largely listed as activators. hit rate 0.19% among 320,000; note: potency is the fitted concentration of half-maximal effect; % of control where 0% means no effect; nearly all actives have a fitted effect of over 45% in size
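hTERT-immortalized A-T patient fibroblasts ([…]), 500 cells/well in OPTI-MEM, 1% FBS, got compounds for 60 min, then NCS for 30 min at 37C. Lysates were then assayed for phospho-KAP-1 by AlphaLISA (anti-pKAP1 donor, anti-KAP1 acceptor beads), 6 hr at 25C.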
KCNH2 WT inh = KCNH2 (human, wildtype) channel inhibition | Q12809 | U2OS, BacMam KCNH2, thallium flux FluxOr; hits give low values | activity change, % at 1.84 µM | hit rate 0.37% among 340,000 | AID 720551;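 active = maximum activity change below -70%; inconclusive = maximum activity change between -70% and -50%; inactive = maximum activity change above -50%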; note: % is set by controls: 0 for no effect and ±100 for the full control effect
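U2OS cells transduced with wild-type KCNH2 virus are loaded with FluxOr dye for 45 min, and thallium flux is measured in kinetic reads before and after stimulation buffer. Rate constants are normalized to DMSO controls.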
KCNH2 3.1 block = KCNH2 3.1 (human) potassium channel inhibition; U2OS KCNH2 3.1, thallium flux FluxOr; hits give low values; activity change, % (tested at about 1.8 µM); hit rate 0.95% among 340,000;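 active = maximum activity change below -70%; inconclusive = maximum activity change from -70% to -50%; inactive = maximum activity change above -50%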;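 note: thallium influx rate constant from kinetic fluorescence after stimulation buffer; % is set by controls: 0 for no effect and ±100 for the full control effect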
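Virally transduced U2OS (3.1 isoform, 4 h infection in dark at RT) → overnight 37 C → FluxOr + Red40 in HBSS/HEPES, 45 min → stimulation buffer, 2 min kinetic read → rate constant vs DMSO controls.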
ELG1 DNA repair = inhibitors of ELG1-dependent DNA repair in HEK293T cells; hit rate 2.3% among 330,000; AID 504467; Potency, µM (titrated, usually from 46.1 µM), inactives show at the highest dose activity change, negative = inhibition, most hits filed as inhibitors; HEK293T ELG1-luciferase reporter, luminescence, 16 h; DNA damage induced by 5-fluorouridine; note: potency is the fitted concentration of half-maximal effect; % is set by controls: 0 for no effect and ±100 for the full control effect; nearly all actives have a fitted effect of over 55% in size
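HEK293T cells expressing luciferase-tagged ELG1 (2,000/well) received 5-Fluorouridine plus compound or DMSO for 16 hr at 37 °C. Luciferase was read by ONE-Glo luminescence after 30 min at room temperature.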
Mito fusion act = blocks mitochondrial division or promotes mitochondrial fusion. hit rate 0.23% among 320,000. S. cerevisiae fusion-defective mutant growth rescue, CellTiterGlo 48 h. Potency, µM (doses to about 46.1 µM), for the others: at the top dose growth rescue (activation), actives largely listed as activators. AID 485298;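 note: potency is the fitted concentration of half-maximal effect; % of control where 0% means no effect; nearly all actives have a fitted effect of over 45% in size; temperature-sensitive fusion mutants such as fzo1-1 at 37 °C on non-fermentable ethanol glycerol medium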
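Temperature-sensitive fusion-defective S. cerevisiae (e.g. fzo1-1, mgm1-5) were grown with compound in YPEG medium (3% ethanol, 3% glycerol) for 48 hours at 37C. Growth rescue was measured as viability by CellTiterGlo luminescence after 10 minutes at ambient.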
Active calls of the source: *; ? = inconclusive; nt = no result given; & = joins results of further samples; [ ] = dose if it differs, or a comment. Unless noted, calls come from the whole dose curve; as a rule, active = well fitted curve in the direction sought with a large enough effect; inconclusive = small, poorly fitted or top-dose-only effect, or another doubt; inactive = no such curve, though single readings can be large; an effect the other way counts as inactive or inconclusive. Not all compounds are listed; count on the stated rates, not on these rows.

item	Structure	Eya2 phos inh	TRPV1 ag	USP2a block	TCR activator	AT treatment
1	CCn1c2ccccc2c2cc([N+](=O)[O-])ccc21	6%	15	-2%	0%	2%
2	COc1ccc(C(C(=O)NCCC(C)C)N(CCO)C(=O)c2snc(C(N)=O)c2N)cc1OC (configuration not stated)	-6%	-2	0%	-5%	-3%
3	CCCN(CCC)C(=O)/C=C/c1cccc([N+](=O)[O-])c1	-9%	11	1%	11%	3%
4	C=CCn1c(CCNC(=O)c2cccs2)nnc1SCC(=O)Nc1cccc(Cl)c1C	-10%	-1	2%	0%	nt
5	CSc1nnc2c(n1)[nH]c1c(C)cccc12	-1%	19	1%	8%	-2%
6	COc1cccc(N(CC(=O)N2CCN(c3ccccc3OC)CC2)S(C)(=O)=O)c1	3%	-1	-2%	0%	8%
7	O=C(NCc1cccs1)C1(S(=O)(=O)c2ccccc2)CC=CC1	-1%	3	-2%	-4%	9%
8	COC(=O)C1=NN(c2ccccc2)C2C(=O)N(c3ccccc3OC)C(=O)C12 (configuration not stated)	-7%	2	1%	-6%[46.1 µM]	2%
9	CCC1(C)CC(=O)NC1=O (configuration not stated)	3%	nt	nt	nt	nt
10	CCOc1ccc(CCNC(=O)c2nn(C)c3c2CS(=O)(=O)c2ccccc2-3)cc1OCC	-9%	-1	0%	0%	-4%
11	C(=N\n1cnnc1)/c1cn(-c2cccs2)nc1-c1ccccc1	-4%	-1	3%	6%	7%
12	COc1cccc2c1C(=O)c1c(O)c3c(c(O)c1C2=O)C[C@](O)(C(C)=O)C[C@H]3O[C@@H]1C[C@@H](N)[C@@H](O)[C@@H](C)O1	23%	2	?	-4%	14%

item	KCNH2 WT inh	KCNH2 3.1 block	ELG1 DNA repair	Mito fusion act
1	-7	-3	1%	6%
2	-3	-1	-8%	2%
3	8	-7	-2%	-3%
4	-8	10	-19%	-6%
5	-10	-6	?	-1%
6	1	13	-1%	0%
7	4	3	1%	0%
8	-13	10	3%	-2%
9	nt	nt	nt	-1%
10	1	22	18µM*	-6%
11	12	-2	?	9%
12	6	3	?	-17%

(more compounds)
item	Structure	Eya2 phos inh	TRPV1 ag	USP2a block	TCR activator	AT treatment
13	CC1=CCCC(C)(C)C1/C=C/C(C)=N/NC(=O)c1ccncc1 (configuration not stated)	0%	?	2%	-3%	-7%
14	CC(C)Cc1nnc(NC(=O)C2CC(=O)N(Cc3ccccc3)C2)s1 (configuration not stated)	2%	5	1%	5%	11%
15	CC(NCc1ccc2c(c1)OCO2)C(=O)NC1CCCc2ccccc21 (configuration not stated)	2%	14	-2%	5%	0%
16	CC(C[N+](C)(C)C)OC(N)=O (configuration not stated)	0%&-6%	2	8%	-9%	-7%
17	CC1(C)Cc2ccccc2C(/C(C#N)=N/O)=N1	7%	1	8%	-3%	-2%
18	COc1ccc(-c2cn3ccccc3n2)cc1OC	-14%	-1	-1%	12%	5%
19	O=c1c2c(nc3c(-c4ccccc4)c[nH]n13)CCCC2	9%	18	3%	-4%	0%
20	O=C(CCS(=O)(=O)c1ccccc1)Nc1cccc(-c2nc3ccccc3s2)c1	-10%	19	-8%	2%[46.1 µM]	18%
21	CCCc1ccc(S(=O)(=O)NCC2CCCN2CC)cc1 (configuration not stated)	-14%	1	-2%	-8%	0%
22	CC(=O)c1cccc(S(=O)(=O)NC2CCSc3ccccc32)c1 (configuration not stated)	-15%	0	2%	-5%	9%
23	COc1cc(CC(=O)O)c(C(C)=O)cc1OC	-18%	1	2%	-2%	4%
24	COC(=O)CCCCC(=O)OC	13%	2	2%	0%	-1%

item	KCNH2 WT inh	KCNH2 3.1 block	ELG1 DNA repair	Mito fusion act
13	1	12	-21%	3%
14	-11	15	6%	-1%
15	4	0	-10%	5%
16	-32	7	1%	-3%&-4%
17	-1	4	-24%	2%
18	-21	8	?	-9%
19	5	-41	-15%	-5%
20	4	-1	?	?
21	38	10	-3%	-15%
22	2	16	0%	-2%
23	-6	-8	28%	-2%
24	4	1	15%	-16%

New compounds follow.
item	Structure	Eya2 phos inh	TRPV1 ag	USP2a block	TCR activator	AT treatment
25	O=C(Nc1ccccc1Cl)c1ccccc1S(=O)(=O)c1ccccc1[N+](=O)[O-]	1%	-4	2%	-2%[46.1 µM]	11%
26	Fc1ccc(-c2cc3nc(-c4ccccc4)cc(N4CCOCC4)n3n2)cc1	35%	0	2%	-18%	-1%
27	COc1ccc2cc(C#N)c(N3CCN(Cc4nnnn4CCC(C)C)CC3)nc2c1	11%	25	-1%	5%	-5%
28	Nc1nc(Cl)nc2c1ncn2[C@H]1C[C@H](O)[C@@H](CO)O1	6%&-3%	-2&-4	1%&3%	7%	25%
29	Cc1cc(C)c2c(CC(=O)NN(C)C)coc2c1	16%	-1	0%	2%	-1%
30	CN(C)CCCN(CCCNC(=O)/C=N/O)Cc1ccccc1	-7%	2	4%	-9%[46.1 µM]	2%
31	Cc1ccc(-c2nn(-c3ccccc3)c3[nH]c(=O)c(CNCc4ccccc4)cc23)cc1	6%	4	-2%	-3%[46.1 µM]	4%
32	Cc1ncc([N+](=O)[O-])n1CC(C)O (configuration not stated)	-1%&8%	-1&-1	0%&7%	-2%	?
33	CN=C1S/C(=C\c2ccc(Sc3ccc(Cl)cc3)o2)C(=O)N1C	-6%	6	0%	nt	-4%
34	O=C1CCN(S(=O)(=O)c2cc(C(F)(F)F)ccc2Cl)CC1	-3%	0	3%	0%	-1%
35	O=S(=O)(c1cccc(-c2cn3ccccc3n2)c1)N1CCCC1	?	0	2%	-2%	-2%
36	CC(C(=O)O)c1ccc(C(=O)c2ccccc2)s1 (configuration not stated)	-14%	3	1%	-6%	7%

item	KCNH2 WT inh	KCNH2 3.1 block	ELG1 DNA repair	Mito fusion act
25	2	-3	1%	0%
26	-8	-8	?	1%
27	1	-16	?	11%
28	4	10	-4%	0%&2%
29	-11	-2	16%	2%
30	1	-6	28%	-1%
31	6	-20	?	-18%
32	3	2	4%	0%&0%
33	nt	nt	3%	-1%
34	-10	3	4%	4%
35	-47	5	?	-4%
36	-6	3	?	-1%

Further records follow.
item	Structure	Eya2 phos inh	TRPV1 ag	USP2a block	TCR activator	AT treatment
37	O=C(CN1C(=O)c2ccccc2C1=O)Nc1cccc(S(=O)(=O)Nc2ccccc2Cl)c1	3%	-5	0%	-3%[46.1 µM]	-5%
38	Cc1cccc(C)c1NC(=O)CSc1nnc(-c2ccco2)n1N	13%	-1	1%	4%	-2%
39	Nc1ccc(C(=O)Oc2ccc([N+](=O)[O-])cc2)cc1	-6%	5	2%	4%	3%
40	Cc1ccc(SCC(=O)Nc2ccc(S(N)(=O)=O)cc2)cc1	11%	?	9%	-2%	2%
41	Cc1ccc(CNCc2cc3c(C(C)(C)C)nn(-c4ccccc4)c3[nH]c2=O)cc1	9%	11	1%	5%	-4%
42	CSC(=N)N	7%	nt	nt	nt	nt
43	CC(C)CCN1CCN(C/C=C/c2ccco2)CC1CCO (configuration not stated)	-1%	-2	1%	1%	9%
44	COCCNC(=O)CCCN1C(=O)c2ccccc2Sc2ncccc21	-7%	-4	2%	-2%	-3%
45	Nc1ncnc2c1ncn2[C@@H]1O[C@H](COS(=O)(=O)O)[C@@H](O)[C@H]1O	8%	-1	1%	6%	6%
46	COc1ccc(CNc2nc(NCc3ccc(OC)cc3)n(C(=O)c3ccccc3[N+](=O)[O-])n2)cc1	8%	-2	-10%	3%	1%
47	c1ccc2c(c1)CSc1sccc1C2=C1CCNCC1	0%	8	0%	-3%[46.1 µM]	-10%
48	Cc1noc(C)c1CSCC(=O)Nc1nc2ccccc2s1	6%	4	2%	-4%	-6%
49	CCOC(=O)c1c(NC2OC(=O)c3c2ccc(OC)c3OC)sc(C(=O)OC(C)(C)C)c1C (configuration not stated)	-10%	?	0%	1%[46.1 µM]	3%
50	Cc1ccccc1OCCC(=O)Nc1cccc(S(=O)(=O)Nc2ccccc2Cl)c1	-2%	3	-2%	-1%[46.1 µM]	-1%

item	KCNH2 WT inh	KCNH2 3.1 block	ELG1 DNA repair	Mito fusion act
37	-8	5	-5%	-8%
38	7	-20	1%	-2%
39	-8	19	?	2%
40	18	-8	-8%	0%
41	15	-19	-13%	1%
42	nt	nt	nt	-8%
43	6	6	6%	3%
44	-4	10	5%	2%
45	nt	nt	30%	-10%
46	3	5	-4%	-7%
47	26	9	?	-7%
48	-5	6	?	0%
49	-3	-7	?	23%
50	4	-4	-27%	15%

Two entries from above, with values under each structure:
Under each structure: Eya2 phos inh, TRPV1 ag, USP2a block, TCR activator, AT treatment, KCNH2 WT inh, KCNH2 3.1 block, ELG1 DNA repair, Mito fusion act
45. Nc1ncnc2c1ncn2[C@@H]1O[C@H](COS(=O)(=O)O)[C@@H](O)[C@H]1O
→ 8%, -1, 1%, 6%, 6%, nt, nt, 30%, -10%
17. CC1(C)Cc2ccccc2C(/C(C#N)=N/O)=N1
→ 7%, 1, 8%, -3%, -2%, -1, 4, -24%, 2%

Bioassay records deposited in PubChem BioAssay by National Center for Advancing Translational Sciences (NCATS).
